Sfp PPTase inh = inhibitors of Bacillus subtilis Sfp phosphopantetheinyl transferase | Biochemical Sfp PPTase activity, qHTS | Q9F4F7 | Potency, µM, without a hit: max response, negative = inhibition, hits mostly inhibitors | AID 1490 | actives 3.5% (n = 310,000); active = well fitted inhibition curve with a large enough effect; inconclusive = small, poorly fitted or top-dose-only effect, or another doubt; inactive = no such curve, though single readings can be large or run the other way;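 also: the enzyme is Sfp with the accession as filed and its product quenches rhodamine fluorescence; potency is read from the fitted curve at half-maximal effect; 0% = enzyme reaction without inhibitor and -100% = no enzyme wells; top concentration of the series not given in the record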
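Buffer: 50 mM Hepes-Na pH 7.6, 10 mM MgCl2, 0.01% Nonidet P-40, 0.01% BSA. Enzyme 15 nM, pre-exposed to compound 15 min; substrates then added and fluorescence change tracked over 30 min.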
TRPV1 potentiator = human TRPV1 potentiation; Q8NER1; TRPV1-expressing cells, Fluo-8 calcium influx, capsaicin EC20 potentiation; host cell line not named in the record; control for the full effect not named in the record; potentiation, % at 8.33 µM; actives 0.02% (n = 320,000); AID 540277; active means potentiation above 80%; inconclusive means 30% to 80%; inactive means below 30%; also: 0% is about no effect
Target sequence (Q8NER1 whole entry, looked up): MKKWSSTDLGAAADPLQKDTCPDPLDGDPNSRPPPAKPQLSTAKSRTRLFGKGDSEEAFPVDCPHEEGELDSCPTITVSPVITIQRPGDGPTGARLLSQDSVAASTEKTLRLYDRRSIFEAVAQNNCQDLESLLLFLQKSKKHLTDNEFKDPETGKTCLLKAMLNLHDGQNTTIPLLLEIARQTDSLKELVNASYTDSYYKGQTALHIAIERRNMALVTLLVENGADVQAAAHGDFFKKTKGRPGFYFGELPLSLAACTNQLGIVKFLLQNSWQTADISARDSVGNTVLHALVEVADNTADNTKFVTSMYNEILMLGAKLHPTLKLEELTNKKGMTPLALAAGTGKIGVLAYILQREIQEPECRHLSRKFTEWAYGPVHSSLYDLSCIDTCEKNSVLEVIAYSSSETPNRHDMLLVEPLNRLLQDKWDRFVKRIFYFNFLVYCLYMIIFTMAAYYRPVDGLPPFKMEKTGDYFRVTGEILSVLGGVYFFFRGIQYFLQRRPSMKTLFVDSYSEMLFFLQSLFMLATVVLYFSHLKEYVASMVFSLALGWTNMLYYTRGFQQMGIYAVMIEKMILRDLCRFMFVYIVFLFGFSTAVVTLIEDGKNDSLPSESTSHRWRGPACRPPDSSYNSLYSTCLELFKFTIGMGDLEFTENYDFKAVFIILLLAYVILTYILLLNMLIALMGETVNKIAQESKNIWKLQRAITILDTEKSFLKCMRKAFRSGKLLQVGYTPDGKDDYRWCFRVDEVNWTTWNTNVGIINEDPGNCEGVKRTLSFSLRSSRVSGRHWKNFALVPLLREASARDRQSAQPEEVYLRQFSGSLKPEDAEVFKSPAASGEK
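TRPV1-expressing cells were cultured overnight at 35.5C and loaded with Fluo-8 calcium dye for 40 to 90 min at room temperature. After a 10 s baseline, compound was added and calcium influx was read kinetically for 3 min (ex 480/em 520 nm).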
Menin-MLL FL inh = displaces fluorescein MLL peptide from human menin; Fluorescence polarization, fluorescein-MLL peptide displacement from menin; FP activity change, % at 61.4 µM; 290,000 tested, under 10 active; AID 1766; inconclusive = falling polarisation curve, or a change in total fluorescence; inactive = total fluorescence flat and polarisation flat or rising; no compound was filed as active; the % refers to the polarisation; negative = inhibition;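 also: % of control where 0% means no effect; inhibitors lower the polarisation; unlabelled MLL peptide was the positive control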
TRPML1 inh = blocks the human TRPML1 channel. Q9GZU1. TRPML1-inducible cells, Ca2+ dye fluorescence, FDSS; stronger effect = lower value; inhibition of EC80 agonist-evoked calcium signal. activity change, negative = inhibition, % (test concentration not listed). actives 0.02% (n = 390,000). AID 624415; in the data active means activity change below about -50%; inconclusive means about -30% to -50%; inactive means above about -30%;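 also: stimulus is agonist 54-4 at its EC80 concentration; % is scaled to controls: 0 for no effect and ±100 for the full control effect; compound concentration not given in the record; the text of the record puts the active cut at -80%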
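Tet-induced TRPML1-DL cells loaded with Ca8 no-wash calcium dye were read kinetically on FDSS. Compound addition was followed by EC80 agonist 54-4 (4 uM final); inhibition was read over 110 s.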
ClpP mod = qHTS Assay for Activators of ClpP; actives 1.9% (n = 340,000); purified B. subtilis ClpP, FRET peptide cleavage, 20 min; ATP-dependent Clp protease proteolytic subunit (Bacillus subtilis (strain 168)), P80244; Potency, µM (series often up to 57.5 µM), for the others: top-dose activity change, negative = active; active = well fitted falling curve with a large enough effect; inconclusive = small, poorly fitted or top-dose-only effect; inactive = no such curve, though single readings can be large or run the other way; also: potency is read from the fitted curve at half-maximal effect; the source files actives as falling curves though it sought activators and does not explain the sign; nearly all actives have a fitted effect of over 65% in size; many hits overshoot -100%
Target sequence (P80244 whole entry, looked up): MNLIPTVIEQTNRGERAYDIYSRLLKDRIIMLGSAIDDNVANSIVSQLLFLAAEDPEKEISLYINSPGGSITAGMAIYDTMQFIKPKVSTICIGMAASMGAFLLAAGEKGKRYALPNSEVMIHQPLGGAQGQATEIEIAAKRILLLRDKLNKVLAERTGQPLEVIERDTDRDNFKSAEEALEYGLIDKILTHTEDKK
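Buffer: 100 mM Tris/HCl pH8, 100 mM KCl, 0.05% low protease BSA, 2.5% glycerol, 0.01% Tween-20. ClpP 10 microg/mL final; 20 min RT; delta FRET normalized to ADEP and DMSO controls.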
PINK1 expr mod = PINK1 expression modulation | PINK1 immunofluorescence, high-content cytometry, 24 h | Potency, µM (top dose mostly 76.6 µM), inactives show top-dose activation (PINK1 increase), actives largely listed as activators | actives 0.2% (n = 410,000); active = well fitted activation curve with a large enough effect; inconclusive = small, poorly fitted or top-dose-only effect; inactive = flat fitted curve, though single readings scatter; cell line not stated here;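 also: potency is read from the fitted curve at half-maximal effect; % of control where 0% means no effect; nearly all actives have a fitted effect of over 65% in size; a mitochondrial uncoupler was the plate control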
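PINK1 protein, normally rapidly degraded, was detected by immunofluorescence after 24 hour compound treatment of a stable cell line. Titration data (5 concentrations) came from laser-scanning cytometry, with CCCP-treated wells as controls.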
TRPML1 ag = activates the human TRPML1 channel; Q9GZU1; TRPML1-expressing cells, Ca2+ dye fluorescence, FDSS; host cell line not named in the record; reference of the full effect not given here; activation, % (concentration not given with the values); actives 0.12% (n = 410,000); AID 624414; in the data active = activation above about 50%; inconclusive = about 30% to 50%; inactive = below about 30%; also: 0% is about no effect; the text of the record puts the active cut at 80%
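Cells: TRPML1-DL, 1X Tet inducer, ~16 h at 37 degrees C/5% CO2. Dye: ABD Ca8 no-wash + quencher, 45-90 min RT. Read: 10 s baseline, compound add, 110 s agonist phase; 54-4 EC80 (4uM final), 110 s antagonist phase.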
An asterisk follows results filed as active; ? = inconclusive; · = not tested or not shown; & = joins results of further samples; [ ] = another dose, or the depositor's remark.

SMILES | Sfp PPTase inh | TRPV1 potentiator | Menin-MLL FL inh | TRPML1 inh | ClpP mod | PINK1 expr mod | TRPML1 ag
COc1cc2c(c(NC(C)=O)c1)N(C(C)=O)CCC2 | · | · | · | -2.1 | 2.0% | -1.5% | 0.5
CCN1c2ccc(S(=O)(=O)N3CCOCC3)cc2N(Cc2ccc(OC)cc2)C1C (centres undefined) | 14.7% | 2.9 | 14.9 | 9.6 | · | 1.6% | 0.6
COc1cccc(CNC(=O)C2CCN(Cc3cnn(-c4ccccc4)c3-n3cccc3)CC2)c1 | -7.4% | -5.0 | 5.1 | -9.9 | 0.0% | -0.2% | -0.8
Cc1cc(C)cc(NC(=O)NCc2c(-n3cccc3)sc3c2CCCC3)c1 | · | · | · | 6.6 | 1.1% | 1.5% | -0.7
Cc1ccc(S(=O)(=O)N2CCC(=O)N(CCOCc3ccc(C(F)(F)F)cc3)CC2)cc1 | 34.1%&26.1%[activator] | -30.0 | ? | -0.9 | 0.2% | 1.1% | 2.3
COc1ccc(C(=O)Nc2ccc(CN3CCOCC3)cc2)cc1 | 8.5% | -27.0 | -1.7 | -7.6 | -0.4% | -2.5% | 1.8
COCCn1c(SCC(=O)c2ccc(OC)cc2)nc2cc(C(=O)NC3CCCC3)ccc2c1=O | · | · | · | 16.5 | -0.6% | 0.1% | 0.1
Cc1onc(-c2ccccc2)c1NC(=O)Nc1c(-c2ccccc2)noc1C | 21.8% | -19.7 | -2.4 | 5.4 | · | 1.8% | 0.5
Cc1ccc(Cl)cc1NC(=O)C1CCCN(S(C)(=O)=O)C1 (centres undefined) | 11.6% | -1.7 | -1.2 | -5.3 | -1.1% | 0.9% | -0.2
O=C(COc1ccc(Cl)cc1Cl)NC(=O)N1CCOCC1 | 18.8% | -0.4 | 1.3 | -5.9 | 0.7% | 0.7% | -0.3
CC(=O)Oc1ccc2oc3c(c2c1)C(=O)CCC3 | 0.4% | 16.7 | 1.6 | 8.7 | -1.7% | 1.1% | -0.9
O=C(NCc1ccc2c(c1)OCO2)C1CCCN1C(=O)Nc1ccccc1 (centres undefined) | 0.5% | 6.1 | -5.2 | 9.1 | -0.1% | ? | 0.0
CCOC(=O)CCCNC(=O)CCNC(=O)c1ccc(OCC(C)C)cc1 | 24.6% | 2.0 | -0.3 | 5.2 | 0.1% | 0.3% | -0.4
CCCCCCCCNC(=O)CCNC(=O)c1ccc(C(C)(C)C)cc1 | 14.1% | -6.4 | 2.5 | 4.6 | 2.3% | 2.7% | 0.0
COc1ccc(N2C(=O)C(CC(=O)Nc3ccccc3)N(CCc3ccc(OC)c(OC)c3)C2=O)cc1 (centres undefined) | 8.0% | 21.5 | -1.2 | -8.2 | · | 2.2% | -0.8
CC(OC(=O)c1ccc2c(c1)OCO2)C(=O)NC1CCCCC1C (centres undefined) | · | 4.3 | · | 19.2 | -19.3% | 6.4% | -0.9
Cn1cccc1CC(=O)N/N=C/c1cc([N+](=O)[O-])ccc1Cl | 3.1% | 25.2 | 0.8 | 22.2 | · | 1.3% | -1.3
CCOC(=O)c1sc(NC(=O)CSc2nnc(-c3ccco3)o2)c(C(=O)OCC)c1C | -2.0% | 17.5 | 2.0 | -15.9 | -0.1% | 4.3% | -1.0
CCOCCCNC(=O)c1ccccc1Br | 16.3% | -2.3 | 2.1 | 6.3 | 0.2% | -2.8% | -0.2
O=C(O)c1ccc(CNCc2ccccc2F)cc1 | 11.1% | 10.4 | -0.9 | 8.9 | · | -0.4% | 0.3
COc1ccc(Br)c2c1-c1nc(NC(=O)c3ccccc3F)sc1C2 | · | · | · | 15.9 | -6.5% | 5.5% | 1.9
CCN(CC)S(=O)(=O)c1ccc(OC)c(NC(=O)CSc2ccccc2)c1 | 4.1% | 5.9 | 1.3 | -1.0 | -2.2% | -0.3% | 1.8
CC(=O)Nc1ccccc1N(CC(O)Cn1c2ccccc2c2ccccc21)S(=O)(=O)c1ccc(C)cc1 (centres undefined) | 9.2% | -14.2 | 3.3 | 8.1 | · | ? | 1.8
O=C(Nc1cccc2ncccc12)C12CC3CC(CC(C3)C1)C2 | 0.6% | 2.4 | 1.4 | -2.5 | -0.7% | -1.1% | -0.4
Cc1nc2cc(NC(=O)c3ccco3)ccc2n1C | 13.3% | 13.2 | · | -5.6 | 2.0% | -0.5% | -0.5

Carrying on:
SMILES | Sfp PPTase inh | TRPV1 potentiator | Menin-MLL FL inh | TRPML1 inh | ClpP mod | PINK1 expr mod | TRPML1 ag
COc1ccc(C)cc1N(CC(=O)N1CCC(C)CC1)S(=O)(=O)c1ccc(C)cc1 | · | · | · | 2.0 | 1.5% | 2.6% | -1.0
Cc1cc(NC(=O)C(=O)c2cn(C)c3ccccc23)no1 | 11.7% | -20.5 | -3.5 | 2.5 | · | 1.4% | 0.0
COc1cc(-c2nnc(SCC(=O)/C(C#N)=C(\C)N)o2)cc(OC)c1OC | 2.3% | -2.4 | 2.6 | 10.7 | 14.1µM* | 0.6% | -0.4
CC(Cc1ccccc1)=NNc1ccc([N+](=O)[O-])cc1[N+](=O)[O-] | · | · | · | 3.6 | · | 2.6% | 3.5
O=C(CSC1CC(=O)N(c2ccc(C(=O)O)cc2)C1=O)Nc1ccc2ccccc2c1 (centres undefined) | 10.0% | 2.8 | 0.3 | 13.7 | 0.0% | 2.6% | 0.6
COc1ccccc1OCC(=O)Nc1cc(C(F)(F)F)ccc1-n1cncn1 | · | -22.8 | · | -3.3 | 2.5% | 0.0% | -0.2
O=S(=O)(c1ccc2c(c1)OCCO2)N1CCC(c2nc3ccccc3[nH]2)CC1 | 12.3% | 2.1 | 1.4 | -0.7 | 0.1% | 3.3%[38.3 µM] | 3.0
NC(=O)Cc1ccc(C(=O)CSc2nnc(-c3ccncc3)n2C2CC2)s1 | · | · | · | 1.0 | · | -2.5% | 0.3
CCNC(=O)C12CCC(C)(c3nc4cc(C)c(C)cc4nc31)C2(C)C (centres undefined) | 19.5% | 3.4 | -1.6 | 6.9 | · | 2.5% | -1.1
CC(C)CN1C(=O)c2ccccc2C1c1nnnn1-c1ccc2c(c1)OCCO2 (centres undefined) | · | · | · | · | 1.5% | 0.0% | -1.1
CCOc1nc(-c2ccccc2)ccc1-c1noc(-c2cccs2)n1 | ? | -12.5 | -1.4 | 3.4 | 25.1µM* | 25.9%[38.3 µM] | -0.3
c1ccc(-c2nnc3n2-c2ccccc2SC3)cc1 | 10.2% | 5.6 | -0.5 | 8.1 | · | -0.6% | 2.1
COc1ccc(-n2c(=O)c(-c3cn(C)c4ccccc34)nc3cnc(N4CCOCC4)nc32)cc1 | 6.9% | · | ? | · | · | ? | ·
CC(=O)c1ccc(NC(=O)Cn2c(=O)oc3ccccc32)cc1 | 10.2% | -21.0 | 3.8 | -7.3 | · | 3.2% | 0.3
COc1ccc2sc(-c3ccc(S(C)(=O)=O)cc3)c(C(=O)NCCCN3CCCC3=O)c2c1 | · | · | · | -1.1 | -7.9% | 0.3% | -0.7
Fc1ccc(Br)cc1/C=N/N1CCN(c2ccccc2)CC1 | -12.1% | -1.4 | -0.8 | -2.4 | -1.8% | 2.7% | 0.9
Cc1c(N/C(=N/S(=O)(=O)c2ccccc2)c2ccc(Cl)cc2)c(=O)n(-c2ccccc2)n1C | -8.8% | 3.9 | -1.0 | -5.4 | -4.0% | -1.0% | 1.1
O=Cc1ccc(Oc2ccc(F)cc2)nc1 | 16.5% | 26.2 | 3.9 | 12.7 | · | 2.1% | -0.5
Cc1ccc(CNC(=O)Cn2c([N+](=O)[O-])cnc2C)cc1 | 7.4% | -11.5 | 1.6 | 21.2 | 0.9% | 2.5%[38.3 µM] | 0.4
CCCCNC(=O)C1(C)CCCCN1C(=O)c1ccc(C)c(F)c1 (centres undefined) | · | · | · | · | -0.3% | -0.2% | -0.3
CC(NC(=O)C(c1ccccc1)c1ccccc1)c1ccc(S(N)(=O)=O)cc1 (centres undefined) | -1.6% | 0.1 | -0.9 | 6.0 | · | 0.3% | 1.9
O=C(CN1C(=O)CSC1=O)N1CCCCC1 | 24.3% | 4.9 | -0.3 | 26.9 | 0.9% | 2.1% | -0.5
CS(=O)(=O)N1CCN(c2ccc(NC(=O)c3ccccc3)cc2)CC1 | 13.8% | -8.0 | -1.9 | -6.9 | · | 1.9% | -1.0
COc1cc(/C=N/NC(=O)CCC(=O)Nc2ccc(Br)cc2)ccc1O | 13.7% | -27.9 | -4.8 | 6.8 | -11.7% | 3.6% | -1.6
COc1ccc(C2(CNC(=O)c3cccc([N+](=O)[O-])c3)CCCCC2)cc1OC | 2.4% | -5.4 | 3.8 | -3.4 | 0.7% | 9.7% | -0.1

The list continues.
SMILES | Sfp PPTase inh | TRPV1 potentiator | Menin-MLL FL inh | TRPML1 inh | ClpP mod | PINK1 expr mod | TRPML1 ag
CC1=C(C(=O)OCCNC(=O)c2cccnc2)C(c2cccc([N+](=O)[O-])c2)C(C(=O)OCCN(C)C)=C(C)N1 (centres undefined) | -0.1% | 4.6 | 4.2 | 10.1 | -0.8% | 2.3% | 1.1
Cc1nc2ccc(NC(=O)c3c(-c4ccccc4)noc3C)cc2s1 | 3.5% | -6.1 | 3.3 | 15.7 | 1.8% | 3.3% | 0.3
CCC1=NN(C(=O)c2ccc(Br)cc2)C(O)(c2ccccc2)C1 (centres undefined) | -4.9% | -10.1 | 1.6 | -6.9 | 1.1% | 26.7% | -0.1
CC(=O)C1=C(O)C(=O)N(CCc2c[nH]c3ccccc23)C1c1ccc(C)cc1 (centres undefined) | 15.2% | -1.9 | -1.3 | 9.9 | 0.7% | -0.9% | -0.1
CCN(CC)C(=O)Cn1cc(C(=O)C(=O)NCCc2ccc(S(N)(=O)=O)cc2)c2ccccc21 | 6.2% | 5.9 | -0.1 | 18.0 | 0.5% | 1.5% | -0.1
CCc1ccc(CNC(=O)CN2CCSc3ccccc32)cc1 | · | · | · | -26.0 | 0.0% | 7.6% | 2.6
COc1ccc(Cl)cc1NC(=O)CSc1nc(-c2cccs2)cc(C(F)(F)F)n1 | · | · | · | -5.0 | 36.3% | 1.9% | 1.1
COc1cccc2c1cc1c(=O)n(CC(=O)N3CCN(c4cccc(C(F)(F)F)c4)CC3)nc(C)n12 | · | · | · | -10.4 | 15.8µM* | 1.4% | -0.6

Source: PubChem
